Screens (PubChem)
HSV augment – HSV replication enhancement | maximum fold increase | hit rate 0.005% among 220,000 | HSV replication augmentation in cells, fold increase | AID 1956;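 active = peak rise of 1.5-fold or more in the series; inconclusive = self-fluorescent or not available for retest; tested in PC3 cells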;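 note: first round at 10 µM; read as green reporter fluorescence; hits show the peak of a series up to 25 µM; 1 = signal of infected wells without compound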
INS promoter inh – TRM-6 insulin promoter activity inhibition; TRM-6 cells (human fetal islet line), insulin promoter-eGFP reporter, imaging; reporter expression induced with tamoxifen; inhibition, % at 2 µM; hit rate 0.9% among 130,000; AID 1273;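 active = inhibition above the mean plus 3 SD, with well images judged a real hit on visual review, cut at about 60% in these data, passing the limit was not always enough; inconclusive = inhibition over the cutoff but images rejected on review; inactive = inhibition not above the cutoff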
RGS16-Gao HTS – regulators of human RGS16-Galphao interaction; hit rate 0.38% among 220,000; O15492+P09471; binding response (% of control), % at 10 µM; AID 1441; bead-based flow cytometry RGS16-Galphao binding, fluorescence; actives lie on both sides;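 active = below 25% or above 175%, edge rows of some plates excepted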;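 note: Galphao activated by GDP with aluminum fluoride before binding; 100% = wells without compound and 0% = beads without RGS; some results beyond the cut were filed as inactive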
PKD1 kinase inh – inhibitors of human PKD1 kinase; PKD1 kinase fluorescence polarization assay; Q15139; hit rate 0.056% among 200,000; AID 797; inhibition, %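 (about 10 µM by stock and volumes)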;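 active = inhibition of 50% or more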;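 note: controls were vehicle for no effect and a reference inhibitor for full effect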
Target sequence (Q15139 whole entry, looked up): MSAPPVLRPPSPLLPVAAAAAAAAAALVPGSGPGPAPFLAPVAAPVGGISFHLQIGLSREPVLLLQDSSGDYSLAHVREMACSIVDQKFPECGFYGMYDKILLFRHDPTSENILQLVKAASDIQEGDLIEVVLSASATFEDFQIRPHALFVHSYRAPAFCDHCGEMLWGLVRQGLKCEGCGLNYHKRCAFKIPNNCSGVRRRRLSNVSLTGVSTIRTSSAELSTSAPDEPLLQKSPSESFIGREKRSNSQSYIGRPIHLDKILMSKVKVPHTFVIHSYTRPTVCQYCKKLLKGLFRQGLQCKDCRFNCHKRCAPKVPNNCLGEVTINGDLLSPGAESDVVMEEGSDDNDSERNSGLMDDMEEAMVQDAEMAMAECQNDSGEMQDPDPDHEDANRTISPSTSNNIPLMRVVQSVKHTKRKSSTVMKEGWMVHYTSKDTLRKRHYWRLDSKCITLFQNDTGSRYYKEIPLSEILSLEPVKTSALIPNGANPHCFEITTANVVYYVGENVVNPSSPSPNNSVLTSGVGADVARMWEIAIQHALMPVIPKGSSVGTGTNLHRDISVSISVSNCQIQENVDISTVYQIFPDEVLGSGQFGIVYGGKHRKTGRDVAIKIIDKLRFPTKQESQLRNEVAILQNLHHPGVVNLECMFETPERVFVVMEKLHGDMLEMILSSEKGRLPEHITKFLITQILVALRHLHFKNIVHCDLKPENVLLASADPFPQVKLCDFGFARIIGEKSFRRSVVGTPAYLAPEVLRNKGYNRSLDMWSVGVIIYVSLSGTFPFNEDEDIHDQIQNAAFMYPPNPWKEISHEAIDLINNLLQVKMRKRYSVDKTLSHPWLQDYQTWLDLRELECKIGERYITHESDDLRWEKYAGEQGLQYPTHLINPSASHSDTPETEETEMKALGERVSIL
GALR2 agonist – agonists of human galanin receptor 2 (GALR2); hit rate 0.48% among 140,000; GALR2-expressing cells, agonist activation read-out; AID 803; activation, %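 (tested at 5 µM)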; O43603;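 active = above mean plus 3 SD of all compounds, about 5% in these data, not always enough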;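 note: 0% = vehicle buffer wells and 100% = reference agonist at full effect; tested in CHO reporter cells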
INS promoter inh cell count – also measured in INS promoter inh; calls as there; normalized cell count, %; measured here: cell count, toxicity; reference of the scale not given here;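 cells exposed to compound for 48 h; stained nuclei by imaging scaled within each plate; lower means fewer cells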
HSV augment primary fold – also measured in HSV augment; calls as there; fold increase; compound at 10 µM; measured here: primary screen fold increase 10 uM; tested in PC3 cells;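 GFP signal in the first replicate; 1 = infected wells without compound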
The depositor's hits bear a star; i = inactive; u = inconclusive; x = not tested or not shown.

SMILES	HSV augment	HSV augment primary fold	INS promoter inh	INS promoter inh cell count	RGS16-Gao HTS	PKD1 kinase inh	GALR2 agonist
C=CCN(Cc1nc(-c2cc(OC)c3c(c2)OCO3)oc1C)C1CCS(=O)(=O)C1 (centres undefined)	i	0.87	22	142	105	-6	x
O=C(NCCOc1nc(N2CCCCC2)nc(N2CCOCC2)n1)Nc1ccccc1	i	0.74	-3	83	98	-8	0.8
CC(C)[C@@H](N)C(=O)N/N=C/c1ccc2nccnc2c1	i	0.95	x	x	99	x	x
CCC1(C(=O)c2ccccc2)C(c2cccc([N+](=O)[O-])c2)C1(C(=O)OC)C(=O)OC (centres undefined)	i	0.89	-179	132	98	-2	0.9
O=c1c2cc3c(cc2[nH]c(=S)n1C1CCN(Cc2ccccc2)CC1)OCO3	i	0.8	42	106	96	3	x
Cc1ccc(N=Nc2c(C)[nH]n(-c3ccccc3)c2=O)c(C)c1	i	0.99	41	107	112	8	x
CCCCOc1ccc(Nc2cc(Cl)ccc2C(=O)O)cn1	i	0.97	x	x	109	x	x
CCCC(c1nnnn1CCOC)N(Cc1cc2cc(C)c(C)cc2[nH]c1=O)CC1CCCO1 (centres undefined)	x	x	-31	51	102	3	-2.2
O=C(O)c1cc(C2CC2)nn1-c1ccccc1	i	1.1	-24	85	112	5	-3.3
CCOC(=O)Cc1csc(SCC(=O)Nc2cccc(Cl)c2)n1	i	0.88	-60	119	102	5	0.3
CCC(=O)N1CCN(c2ccc(Cl)cc2NC(=O)Cc2ccc(Cl)cc2)CC1	i	0.96	-13	105	106	-6	-1.8
Cc1ccc(-c2ccc(C(=O)O)c(C)n2)cc1	i	1	-386	108	103	-8	-0.6
CS(=O)(=O)N(CC(=O)N1CCN(c2cccc(Cl)c2)CC1)c1ccccc1	i	0.97	-83	31	101	-2	-0.9
O=C(c1ccc(C23CC4CC(CC(C4)C2)C3)o1)N1CCOCC1	i	0.97	27	93	98	-4	-4.5
CCc1ccccc1NC(=O)CN(C)C(=O)CN1C(=O)NC2(CCCCCC2)C1=O	i	0.77	x	x	143	1	-0.6
CCOc1ccc(CNCc2cccnc2)cc1	i	0.91	25	76	107	3	-1.9
Cc1cc(C)cc(N(C(=O)Cc2cccs2)C(C(=O)NC2CCCC2)c2ccc(C)o2)c1 (centres undefined)	i	0.7	-27	74	x	-4	-3.7
COc1ccc([C@H]2[C@@H]3C=CCC[C@@]3(C)C(=O)N2Cc2ccccc2)cc1Cl	i	0.9	x	x	102	x	x
CC(NC(=O)COC(=O)c1cc(Cl)nc(Cl)c1)c1ccccc1 (centres undefined)	i	0.94	11	109	100	0	x
CCc1cc2c(SCC(=O)Nc3ncc(Cl)c(C)c3Cl)ncnc2s1	i	1	x	x	101	7	-1.1
CC(Sc1nc2ccccc2n1C)C(=O)NC(c1ccccc1)c1ccccc1 (centres undefined)	i	0.98	-354	70	116	-2	0.4
CCOC(=O)C1=C(N)Oc2c(oc(CO)cc2=O)C1c1ccc(F)c(F)c1 (centres undefined)	u	x	x	x	108	1	x
COc1ccc(N(CC(=O)NCc2ccc(Cl)cc2)S(=O)(=O)c2ccccc2[N+](=O)[O-])c(OC)c1	i	0.7	x	x	112	-7	x
CCCn1nnc(NC(=O)COc2cc(C)ccc2C(C)C)n1	i	0.8	-13	70	138	-6	0.7
COc1cccc(OCCCN2CCCCCC2)c1	i	0.94	x	x	99	-3	x

4 entries from above, in CSV form:
Structure,HSV augment,HSV augment primary fold,INS promoter inh,INS promoter inh cell count,RGS16-Gao HTS,PKD1 kinase inh,GALR2 agonist
CCOC(=O)C1=C(N)Oc2c(oc(CO)cc2=O)C1c1ccc(F)c(F)c1 (centres undefined),u,x,x,x,108,1,x
COc1ccc(N(CC(=O)NCc2ccc(Cl)cc2)S(=O)(=O)c2ccccc2[N+](=O)[O-])c(OC)c1,i,0.7,x,x,112,-7,x
CCCn1nnc(NC(=O)COc2cc(C)ccc2C(C)C)n1,i,0.8,-13,70,138,-6,0.7
COc1cccc(OCCCN2CCCCCC2)c1,i,0.94,x,x,99,-3,x

Sorted by SMILES length (rising): part of the list above
SMILES	HSV augment	HSV augment primary fold	INS promoter inh	INS promoter inh cell count	RGS16-Gao HTS	PKD1 kinase inh	GALR2 agonist
CCCn1nnc(NC(=O)COc2cc(C)ccc2C(C)C)n1	i	0.8	-13	70	138	-6	0.7
CC(C)[C@@H](N)C(=O)N/N=C/c1ccc2nccnc2c1	i	0.95	x	x	99	x	x
CS(=O)(=O)N(CC(=O)N1CCN(c2cccc(Cl)c2)CC1)c1ccccc1	i	0.97	-83	31	101	-2	-0.9

(more compounds)
SMILES	HSV augment	HSV augment primary fold	INS promoter inh	INS promoter inh cell count	RGS16-Gao HTS	PKD1 kinase inh	GALR2 agonist
Cc1c(CCOC(=O)CC23CC4CC(CC(C4)C2)C3)sc[n+]1Cc1ccccc1	i	0.94	x	x	95	-14	-0.9
O=C(c1ccccn1)N(Cc1ccco1)C1(C(=O)NC2CCCC2)CCCCC1	i	1.1	-81	116	81	-2	-2.0
O=C(COC(=O)c1c2c(nc3ccccc13)/C(=C/c1cccc([N+](=O)[O-])c1)CCC2)NC1CCS(=O)(=O)C1 (centres undefined)	i	0.68	7	78	103	7	0.5
S=c1[nH]nc(Cc2cccs2)n1-c1ccccc1	x	x	-3	120	104	-13	-1.9
Cc1ccc(CSc2nc3c(c(=O)[nH]c(=O)n3C)n2CCC(C)C)cc1	i	0.77	x	x	99	8	-2.6
CCN(CC)S(=O)(=O)c1ccc(N(C)Cc2cccc(OC)c2OC)nc1	i	0.91	22	100	103	-3	x
CC(C)CC1NC(=O)N(CC(=O)NC2CCCc3ccccc32)C1=O (centres undefined)	i	1.1	x	x	102	-3	x
COC(=O)CCC(=O)NNC(=O)c1ccc(Cl)cc1Cl	i	0.75	31	84	32	3	-1.6
CCCCC1C2=C(CCCC2=O)OC2=C1C(=O)CCC2	x	x	x	x	83	-4	-0.2
CCOC(=O)c1sc(Nc2ccc(Br)cc2)nc1C	i	1.2	x	x	101	x	x
Cc1cccc(OCCNc2nc3c(c(=O)n(C)c(=O)n3C)n2C)c1	i	0.92	-14	113	100	-6	-2.0
Cc1ccc(Cl)c(OCC(O)CN(CCO)CCO)c1 (centres undefined)	i	1	x	x	98	6	1.1
NC(=O)c1ccc(-n2c(CCC(=O)O)ccc2-c2cccs2)cc1	i	1.1	x	x	96	-8	x
COc1ccc(-n2nc3c(c2NC(=O)c2c(F)cccc2Cl)CS(=O)C3)cc1 (centres undefined)	i	1.1	x	x	105	-5	-2.2
COC(=O)C(C)Sc1ccc2nnc(CCNS(=O)(=O)c3ccc(C)cc3)n2n1 (centres undefined)	i	0.9	x	x	100	2	x
CCOC(=O)C(NCc1ccccc1)(NC(=O)c1ccccc1)C(F)(F)F (centres undefined)	i	0.81	-25	88	104	-10	1.2
COc1ccc(-c2nnc(NC(=O)CSc3ccc(Cl)cc3)s2)cc1OC	i	1.1	32	119	102	-3	1.1
O=C(/C=C/c1ccccc1)OCc1cncs1	i	1	-5	103	98	-7	x
COC(=O)COc1ccccc1/C=C1/NC(=O)NC1=O	i	1	-69	93	100	7	0.4
Nc1nc(SCC(=O)Nc2ccccc2Sc2ccc(Cl)cc2)n[nH]1	i	0.93	-3	63	109	2	-0.8
Cc1ccc(C(=O)OCC(=O)NCc2ccco2)s1	i	1.1	-17	153	97	9	x
COC(=O)C1=C2SC(C)C(=O)N2C(N)=C(C#N)C1c1cc(OC)c(OC)c(OC)c1 (centres undefined)	i	0.94	x	x	92	-3	-2.6
CC(=O)N1CCN(CC(=O)Nc2ccc(SC(F)F)cc2)CC1	i	1.1	x	x	99	3	-0.5
CC1(C)c2ccccc2N2CC(=O)N[C@@]21/C=C/C=C/c1ccccc1	i	0.91	x	x	104	x	x
COc1ccc(OC)c(C(c2nnnn2CC2CCCO2)N2CCN(C3CCCC3)CC2)c1 (centres undefined)	i	0.91	-70	194	85	-5	-1.3
SMILES	HSV augment	HSV augment primary fold	INS promoter inh	INS promoter inh cell count	RGS16-Gao HTS	PKD1 kinase inh	GALR2 agonist
CCCCN(C(=O)CSc1nnc(-c2ccc(OC)cc2)n1C(C)C)c1c(N)n(Cc2ccccc2)c(=O)[nH]c1=O	i	1	x	x	100	6	0.5
COc1ccc(S(=O)(=O)n2ccc(C)n2)cc1C	i	1.1	-19	68	104	-2	-0.7
COc1cc(CNc2ccc(CNc3ncn[nH]3)cc2)ccc1OCc1ccccc1	i	1.1	x	x	39	7	0.0
O=C(CNC(=O)Cc1ccccc1)NCC(=O)OCC(=O)c1ccc(F)cc1	i	0.99	11	120	100	-7	x
COc1cc(CN2CCCC(CCC(=O)NCc3ccc(C)o3)C2)cc2c1OCO2 (centres undefined)	i	0.97	x	x	96	-3	x
Cc1ccc(C)c(NC(=O)CN(C)C(=O)c2nn(C)c(=O)c3ccccc23)c1	i	1	x	x	102	7	x
CCOC(=O)C1CCN(c2ncnc3c2cnn3-c2ccccc2)CC1	i	0.98	-129	120	99	-7	-2.3
CCCC(c1nnnn1C1CCCC1)N1CCN(C(=O)c2ccco2)CC1 (centres undefined)	i	0.94	-181	161	103	-1	-3.8
Nc1nc2ccc(C(=O)Nc3ccccc3)cc2s1	i	0.97	x	x	60	-7	-1.2
COC(=O)c1cc2c(cc1NC(=O)CSCCc1ccccn1)OCO2	i	1	x	x	101	-14	-0.6
CCc1nnc(NC(=O)CSc2nnc(-c3ccoc3C)n2-c2cccc(C)c2)s1	i	1	-24	76	95	3	-1.7
Cc1ccc(C2CC(=O)C(C=NCCN3CCN(C(=S)Nc4ccccc4)CC3)=C(O)C2)cc1 (centres undefined)	i	0.9	-36	169	102	4	x
Cc1ccc(S(=O)(=O)NC(=O)NCc2ccc(Cl)cc2)cc1	i	1.1	13	136	103	-1	-2.4
O=C(O)COc1ccc(/C=N/NC(=O)C2CCCN2S(=O)(=O)c2ccc(Cl)cc2)cc1 (centres undefined)	i	0.84	-16	98	103	-9	-0.4
O=Cc1c[nH]c2ccc(S(=O)(=O)N3CCOCC3)cc12	i	0.94	33	132	109	-5	-1.9
CCOc1ccccc1NC(=O)c1ccc(S(=O)(=O)N2CCOCC2)cc1	i	0.89	x	x	101	-6	0.2
COC1CCCCC1NS(=O)(=O)c1ccc(Cl)cc1 (centres undefined)	i	1	x	x	101	-3	-1.3
COc1ccc(C=O)cc1COc1ccccc1F	i	0.79	-12	113	45	4	0.2
O=S(=O)(c1cccc(-c2nnc(-c3cccnc3)o2)c1)N1CCCCC1	i	0.98	-21	84	105	-8	-1.6
CCCC(=O)C1=C(O)C(C(=O)OC)C(C)(C)CC1=NCCc1ccc(OC)c(OC)c1 (centres undefined)	i	0.98	x	x	108	1	x
COC(=O)C1CCN(c2cc(Cl)nc(N)n2)CC1	i	0.93	x	x	102	1	x
O=S(=O)(c1ccc(Cl)s1)N1CCN(C/C=C/c2ccccc2)CC1	i	1.1	x	x	112	4	-1.1
O=C(CCCN1C(=O)/C(=C/c2ccccc2Cl)SC1=S)NNC(=O)c1ccccc1	i	0.84	-64	110	98	1	-1.5
CN(C)C(=O)N1CCN(C(=O)N2CCOCC2)CC1	i	1	67	156	96	-5	-1.2
Cc1cccc(Nc2ncnc(N)n2)c1	i	1	x	x	101	-3	x
O=C(Cc1nc2ccccc2[nH]1)NCc1ccco1	i	1.1	x	x	102	-7	-2.1

Profiles, quoted from the list.
`O=C(O)c1cc(C2CC2)nn1-c1ccccc1` in the list: HSV augment: i; HSV augment primary fold: 1.1; INS promoter inh: -24; INS promoter inh cell count: 85; RGS16-Gao HTS: 112; PKD1 kinase inh: 5; GALR2 agonist: -3.3
`O=C(Cc1nc2ccccc2[nH]1)NCc1ccco1` in the list: HSV augment: i; HSV augment primary fold: 1.1; INS promoter inh: x; INS promoter inh cell count: x; RGS16-Gao HTS: 102; PKD1 kinase inh: -7; GALR2 agonist: -2.1
